HIV Env fusion – inhibitors of HIV Env-mediated cell fusion | inhibition, % at 12.3 µM | HeLa-JRFL Env/CEM21 cell fusion, luciferase | 1.1% of 360,000 active;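 active means mean replicate inhibition score of at least 50 and every replicate individually at or above 50; inconclusive means only one of the two criteria met; inactive means mean below 50 and not all replicates reaching 50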;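 further: 0% = plate neutral controls and 100% = maraviroc near 300 nM; one replicate is shown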
CSC inhib – cancer stem cell inhibition | cancer stem cell-like cells viability, luminescence | inhibition, % at 7.5 µM | 1.1% of 300,000 active | AID 2717;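 active means mean at 75% or more and at least half the replicates too; inconclusive means mean and replicates disagree; tested in HMLE shEcad cells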;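 further: 0% = median of negative and 100% = median of positive control wells; the first replicate is given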
UUG fidelity – alters start codon recognition fidelity in yeast. AID 602363. S. cerevisiae UUG-firefly luciferase reporter, luminescence/redox ratio. 0.13% of 350,000 active. activity score, % at 18.7 µM;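 active means replicate mean at a twofold rise or more, about +100% in these data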;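 further: firefly luciferase made from a UUG start codon reports start codon fidelity; reporter light over untreated wells divided by growth signal over untreated wells; some hits fall short of that in this replicate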
MT1-MMP act inh – blocks activation of human MT1-MMP; P50281; HT1080 RFP-PRO-GFP cells, GFP/RFP ratio fluorescence, overnight; percent of plate control window, DMSO zero; GFP/RFP ratio change, % at 20 µM; 0.061% of 360,000 active; AID 651647;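 active means GFP/RFP ratio change of at least 30% with cell ATP level not reduced by more than half and red fluorescence within 50% of control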; further: strong numbers were not always called active
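Material: RFP-PRO-GFP reporter HT1080 cells. Dosing: single-point 20 µM compound, 1% DMSO. Controls: DMSO and RFP-L50D-GFP cell wells. Timing: cells overnight before dosing, compound overnight, 37 °C, 5% CO2. Measure: GFP/RFP fluorescence ratio.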
eIF4H inh – inhibitors of RNA binding by human eIF4H. Q15056. 0.94% of 290,000 active. inhibition, % at 35 µM. eIF4H fluorescence polarization binding assay;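 active means 50% or more with normal probe brightness, or confirmed in later tests; inconclusive means above 50% with abnormal brightness, or retests that disagree; inactive means below 50% or failed in later tests; about a fifth of its hits are not listed in these tables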;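 further: calls also rest on retests at 20 µM and on dose response follow-up; 0% = protein and probe with vehicle and 100% = probe without protein; strong numbers were not always called active; many hits fall short of the cut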
Rce1 inhib – blocks yeast Ras-converting enzyme. AID 2563. 0.27% of 290,000 active. calls only. yeast membranes, quenched prenylated peptide cleavage fluorescence. Q03530;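 active means fall in fluorescence gain of 50% or more versus controls, with final raw signal at or below 3038400; inconclusive means same 50% fall but final raw signal above 3038400; inactive means fall in fluorescence gain under 50%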;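 further: plate controls were neutral control wells for no effect and wells lacking membranes for full effect; tested at 10 µM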
Target sequence (Q03530 whole entry, looked up): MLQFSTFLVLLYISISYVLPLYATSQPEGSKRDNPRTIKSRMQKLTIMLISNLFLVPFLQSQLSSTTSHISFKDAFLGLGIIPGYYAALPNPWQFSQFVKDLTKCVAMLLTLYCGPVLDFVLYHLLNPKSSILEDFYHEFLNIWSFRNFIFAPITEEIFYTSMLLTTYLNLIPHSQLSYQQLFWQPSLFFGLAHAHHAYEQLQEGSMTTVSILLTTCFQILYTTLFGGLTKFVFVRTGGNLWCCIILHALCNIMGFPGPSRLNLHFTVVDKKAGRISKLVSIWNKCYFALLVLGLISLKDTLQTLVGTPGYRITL
PABP polyA inh – PABP-poly(A) binding inhibition. PABP-poly(A) RNA binding, fluorescence polarization. inhibition, % at 35 µM. 1% of 290,000 active;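 active means 50% or more with normal probe brightness, or confirmed in later tests; inconclusive means above 50% with abnormal brightness, or retests that disagree; inactive means below 50% or failed in later tests; about a fifth of its hits are not listed in these tables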;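 further: calls also rest on retests at 20 µM and on dose response follow-up; controls were probe without protein and protein plus probe with vehicle; some compounds called inactive have numbers as strong as hits; many hits fall short of the cut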
MT1-MMP act inh RFP – second read-out of MT1-MMP act inh, no call of its own (marks repeat the call); RFP signal change, %; measured here: RFP expression control read;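 0 = vehicle wells; hits needed this value within 50% of zero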
* marks the source's active call; other numbers are inactive results; i = inactive; ? = inconclusive; · = not tested or not shown. This is a subset. The share of hits here may be higher or lower than overall.

Start of the data: the first 17 entries, ahead of the listing:
SMILES	HIV Env fusion	CSC inhib	UUG fidelity	MT1-MMP act inh	MT1-MMP act inh RFP	eIF4H inh	Rce1 inhib	PABP polyA inh
COc1cccc(-c2ccc3c(c2)S(=O)(=O)c2cccc(C(=O)O)c2C3=O)c1OC	-26	7	2	1	4	·	·	·
O=C(Nc1ccccc1)C1=C[C@H](c2ccccc2)C[C@H](OCc2ccc(CO)cc2)O1	-33	1	-13	3	-3	-8	i	-1
O=C(COC(=O)c1ccccc1C(=O)c1ccccc1)NCCc1ccccc1	10	0	·	-12	-2	0	·	9
CCC(=O)N1CCc2cc(S(=O)(=O)NCCC(=O)NC3CCCCCC3)ccc21	-1	0	-12	3	-2	-1	i	7
COc1ccc(S(=O)(=O)N2CCOCC2)cc1NC(=O)Cc1ccc2c(c1)OCCO2	9	·	-27	-1	1	·	·	·
Cc1ccc(N=C2C(=O)Nc3ccccc32)cc1	-1	-2	-8	0	14	-9	i	-16
Cc1ccc(C(=O)Nc2cc([N+](=O)[O-])ccc2F)s1	·	9	·	2	0	-2	i	-8
O=CNc1ccc2c3c(cccc13)-c1ccccc1-2	-144	·	-13	-124	-2	·	·	·
O=C(c1ccccn1)N(Cc1cc2ccccc2[nH]c1=O)C1CCCCC1	·	7	15	-4	-3	5	i	1
Cc1cccc2c(N=Nc3ccc(S(=O)(=O)Nc4ccc(Cl)cc4)cc3[N+](=O)[O-])c(O)[nH]c12	12	-5	-7	16	-3	3	i	-3
O=c1[nH]cc(S(=O)(=O)Nc2ccc3c(c2)OCO3)c(=O)[nH]1	14	-12	-13	9	-2	·	i	·
NNC(=O)c1n[nH]c(=O)c2ccccc12	3	-2	-21	3	3	-11	i	-7
CN1CCN(CC(O)COc2ccc(Cl)cc2)CC1 (stereo not given)	·	-18	·	-1	-1	-4	i	18
CCCCc1ccc(/C=C(\C#N)C(N)=S)s1	-1	·	·	-6	-3	-5	·	-10
O=C(Nc1ccc(OCC(F)(F)C(F)F)c(C(F)(F)F)c1)c1ccccc1	·	68	-6	-8	-21	·	i	·
O=C(Nc1ccccc1)C1CC2CCCC(C1)C2=O (stereo not given)	·	-6	-10	2	4	-5	i	-7
CC1Cc2nc(SCC(=O)NCCc3ccccc3)n(C)c(=O)c2S1 (stereo not given)	-4	-5	-9	-1	-1	-2	i	-15

The list itself, previewed entries included:
SMILES	HIV Env fusion	CSC inhib	UUG fidelity	MT1-MMP act inh	MT1-MMP act inh RFP	eIF4H inh	Rce1 inhib	PABP polyA inh
COc1cccc(-c2ccc3c(c2)S(=O)(=O)c2cccc(C(=O)O)c2C3=O)c1OC	-26	7	2	1	4	·	·	·
O=C(Nc1ccccc1)C1=C[C@H](c2ccccc2)C[C@H](OCc2ccc(CO)cc2)O1	-33	1	-13	3	-3	-8	i	-1
O=C(COC(=O)c1ccccc1C(=O)c1ccccc1)NCCc1ccccc1	10	0	·	-12	-2	0	·	9
CCC(=O)N1CCc2cc(S(=O)(=O)NCCC(=O)NC3CCCCCC3)ccc21	-1	0	-12	3	-2	-1	i	7
COc1ccc(S(=O)(=O)N2CCOCC2)cc1NC(=O)Cc1ccc2c(c1)OCCO2	9	·	-27	-1	1	·	·	·
Cc1ccc(N=C2C(=O)Nc3ccccc32)cc1	-1	-2	-8	0	14	-9	i	-16
Cc1ccc(C(=O)Nc2cc([N+](=O)[O-])ccc2F)s1	·	9	·	2	0	-2	i	-8
O=CNc1ccc2c3c(cccc13)-c1ccccc1-2	-144	·	-13	-124	-2	·	·	·
O=C(c1ccccn1)N(Cc1cc2ccccc2[nH]c1=O)C1CCCCC1	·	7	15	-4	-3	5	i	1
Cc1cccc2c(N=Nc3ccc(S(=O)(=O)Nc4ccc(Cl)cc4)cc3[N+](=O)[O-])c(O)[nH]c12	12	-5	-7	16	-3	3	i	-3
O=c1[nH]cc(S(=O)(=O)Nc2ccc3c(c2)OCO3)c(=O)[nH]1	14	-12	-13	9	-2	·	i	·
NNC(=O)c1n[nH]c(=O)c2ccccc12	3	-2	-21	3	3	-11	i	-7
CN1CCN(CC(O)COc2ccc(Cl)cc2)CC1 (stereo not given)	·	-18	·	-1	-1	-4	i	18
CCCCc1ccc(/C=C(\C#N)C(N)=S)s1	-1	·	·	-6	-3	-5	·	-10
O=C(Nc1ccc(OCC(F)(F)C(F)F)c(C(F)(F)F)c1)c1ccccc1	·	68	-6	-8	-21	·	i	·
O=C(Nc1ccccc1)C1CC2CCCC(C1)C2=O (stereo not given)	·	-6	-10	2	4	-5	i	-7
CC1Cc2nc(SCC(=O)NCCc3ccccc3)n(C)c(=O)c2S1 (stereo not given)	-4	-5	-9	-1	-1	-2	i	-15
O=C(NC1CCN(C(=O)Nc2ccccc2Cl)CC1)c1ccccc1	-9	-24	·	6	2	2	i	-6
CCOC(=O)N(C)c1c(CC)nc2c(OCc3ccc(S(C)(=O)=O)cc3)cccn12	-2	·	-11	-9	1	·	·	·
CN(C)c1cc[n+](CC(=O)N2CCCc3ccccc32)cc1	-38	-15	·	0	2	-4	i	-1
COC(=O)c1cc(NC(C)=O)ccc1N1CCOCC1	6	-6	·	3	4	-6	i	7
OC1COC(c2ccccc2)OC1C(O)C1OC(c2ccccc2)OCC1O (stereo not given)	4	·	-5	-2	1	·	·	·
COc1ccccc1N1CCN(S(=O)(=O)c2cn(C)nc2C)CC1	-23	-12	7	3	5	-5	i	-27
CC(C)(C)SCCNC(=O)CN(c1ccc(F)c(Cl)c1)S(C)(=O)=O	-64	-8	-13	-4	-4	-5	i	1
CCNC(=O)C1(C)CCN(C(=O)c2ccc(C(F)(F)F)cc2)C1 (stereo not given)	13	·	-10	9	2	·	·	·
CCCNC(=O)Cn1sc2nc(C)cc(C)c2c1=O	13	31	·	1	2	-9	i	4
O=C(NCC1CCCO1)c1onc(CSc2ccccc2)c1C(=O)O (stereo not given)	-10	-30	-6	4	9	-5	i	-3
O=C(NC1(Cc2ccccc2)CCN(Cc2ccc(-c3ccccc3)cc2)C1=O)c1ccccc1 (stereo not given)	-6	49	-19	-7	-22	·	·	·
Cc1nnc(SCC(=O)NCc2ccccc2)[nH]c1=O	·	-1	-15	5	7	-2	i	8
CC(=O)c1cc(-c2ccccc2)n(CC(=O)NC(C)(C)C)c1C	-18	-3	·	0	1	0	i	20
CCOc1ccc(CCNC(=O)CCNC(=O)c2ccco2)cc1OCC	13	-10	-1	4	2	-9	i	5
O=C(CCn1cccc1)Nc1cccc(F)c1	·	2	-21	-2	4	-12	i	-10
Cc1noc(C)c1COc1ccc(CC(=O)NC2CCCCCC2)cc1	12	-3	·	3	-2	4	i	1
N#C/C(=N\Nc1ccccc1)C(N)=S	-11	8	-13	2	-1	-1	i	5
O=C(Nc1cc(C(F)(F)F)ccc1N1CCOCC1)c1c(F)c(F)c(F)c(F)c1F	·	0	-12	-3	-5	1	i	-9
COc1c2ccc(C(=O)NCCCCc3ccccc3)cc2nn1C	-7	-8	0	2	1	4	i	-2
COc1cc(/C=C2\SC(=S)N(N3CCOCC3)C2=O)ccc1O	-80	-6	·	12	30	22	i	-1
CN(C)Cc1nc2c(c(=O)[nH]1)C(C)(C)Cc1ccccc1-2	·	-19	-8	10	7	-6	i	-16
Cc1cc(=O)oc2c3c(cc(OCC(=O)NCc4ccccn4)c12)OC(C)(C)CC3	·	-15	-17	-2	-2	-2	i	3
O=C(Nc1cc(Cl)ccc1N1CCOCC1)c1cc2ccccc2o1	3	·	-4	-6	-2	-4	i	10
COc1ccccc1Nc1cc(C(=O)N2CCc3ccccc3C2)c2ccccc2n1	·	21	·	·	·	0	i	15
COc1cccc(NC(=O)CNC(=O)c2ccc(OC)c(OC)c2)c1	-1	-9	·	3	-1	0	i	8
COCCn1c(C)c(C)c2c(NCCc3ccccc3)ncnc21	-20	-2	-36	-8	-5	8	i	-9
COc1ccc(C2=NS(=O)(=O)N(C)C(C(=O)N3CCOCC3)=C2)cc1OC	·	-9	-8	-2	3	0	i	-2
CCn1cc(/C=C(\NC(=O)c2ccc(OC)cc2)C(=O)N2CCN(C)CC2)c2ccccc21	-86	·	6	3	2	-6	i	-2
CC1(C)CC(=O)CC(=Nc2ccc3[nH]c(=O)[nH]c3c2)C1	-47	-3	-9	1	0	2	i	-6
O=C(Nc1ccccc1C(=O)N1CCOCC1)c1cc2ccccc2o1	-5	-11	-1	0	0	-2	i	2
O=C(CCc1ccccc1)N=C1SC2CS(=O)(=O)CC2N1Cc1ccccc1 (stereo not given)	1	-11	·	·	·	5	i	5
O=C(O)c1ccccc1N=Nc1ccc(O)cc1	15	5	-13	-12	1	·	i	·
CCOC(=O)C1=NOC2C3CC(C12)C1C(=O)N(CCc2ccc(OC)c(OC)c2)C(=O)C31 (stereo not given)	0	-4	3	3	5	10	i	2
CC(C)CC(=O)NC(=S)Nc1ccc(N2CCN(C(=O)c3cccs3)CC2)cc1	34	5	-26	-10	-11	0	i	10
O=C(Cn1cc(SCc2ccc(F)cc2)c2ccccc21)N1CCOCC1	·	-4	-6	-1	-3	3	i	0
COc1ccc(C(=O)Nc2ccc(NC(=O)c3ccccc3)cc2)cc1S(=O)(=O)N1CCOCC1	-14	-6	-6	-5	-9	0	i	11
O=C1c2ccccc2NC(c2ccc(O)cc2)N1Cc1ccco1 (stereo not given)	-56	3	-1	-1	3	5	i	10
CC(=O)NNc1ncnc2c1cnn2-c1ccc(C)c(C)c1	-8	-6	·	0	4	-3	i	-5
O=C(Cn1c(C(F)(F)F)nc2ccccc21)c1ccc(Cl)cc1	64*	18	2	1	-5	-12	i	2
C=C1CCC2[C@](C)(CO)[C@H](O)CC[C@@]2(C)[C@@H]1C/C=C1\C(=O)OC[C@H]1O (stereo not given in full)	·	-12	3	6	-3	·	i	·
O=C(Nc1nnc([C@H]2C[C@H](O)[C@@H](CO)O2)s1)c1cccc(Oc2ccccc2)c1	16	·	-3	10	1	·	·	·
O=C(c1sc2ccccc2c1Cl)N(Cc1ccccc1)C1CCS(=O)(=O)C1 (stereo not given)	-36	·	-4	-2	-3	-13	i	-6
CN(Cc1ccccc1)S(=O)(=O)c1ccc(N2CCCC2=O)cc1	·	-12	-16	6	-1	·	·	·
(listing goes on)
SMILES	HIV Env fusion	CSC inhib	UUG fidelity	MT1-MMP act inh	MT1-MMP act inh RFP	eIF4H inh	Rce1 inhib	PABP polyA inh
CC(C)Cc1nnc(NS(=O)(=O)Cc2ccccc2)s1	-10	4	-8	-8	-1	0	i	12
CCc1ccccc1NC(=O)CCC(=O)N1CCSc2ccccc21	?	-7	-8	-1	3	0	i	-2
CC(C)CC(=O)N1CC(=O)Nc2ccc(F)cc2C1c1ccccc1 (stereo not given)	5	-15	-12	-5	-3	-2	i	-12
CCOC(=O)COc1cccc2c(=O)n(CC(=O)NCCc3ccccc3)ccc12	-1	-4	-11	11	4	-2	i	6
CCOC(=O)C1CCN(c2cc(C)nc3ccc(OC)cc23)CC1	25	-6	-6	-11	-8	4	i	8
CCCCn1c(N)c(N(CC(C)C)C(=O)c2ccc(N(C)S(=O)(=O)c3ccc(C)cc3)cc2)c(=O)[nH]c1=O	·	-11	·	1	1	·	i	·
O=C(CSc1nnc2scc(-c3ccc(Cl)cc3)n12)NCc1ccco1	-21	0	-8	0	4	8	i	-9
O=C(NC1CCCCCC1)c1nc2ncccn2n1	·	-21	·	6	6	-7	i	-7
